# Env fusion inh: inhibitors of HIV-1 Env-driven cell-cell fusion, primary screen, HeLa-JRFL effector, CEM21 target cells, luciferase; inhibition, % at 12.3 µM; 1.1% of 360,000 active;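 active = mean replicate inhibition score of at least 50 and every replicate individually at or above 50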;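 also: 0% = plate neutral controls and 100% = maraviroc near 300 nM; one replicate is shown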
# Yeast UUG start: modulators of yeast start codon fidelity, primary screen, whole organism, S. cerevisiae, single point, plate reader. 0.13% of 350,000 active. activity score, % at 18.7 µM. AID 602363, 2012. S. cerevisiae UUG-firefly luciferase reporter, luminescence/redox ratio;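 active = replicate mean at a twofold rise or more, about +100% in these data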;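 also: firefly luciferase made from a UUG start codon reports start codon fidelity; reporter light over untreated wells divided by growth signal over untreated wells; some hits fall short of that in this replicate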
# * marks the source's active call; other numbers are inactive results; [ ] = dose if it differs, or a comment.
SMILES,Env fusion inh,Yeast UUG start
C[C@H](CO)N1C[C@H](C)[C@@H](CN(C)Cc2ccc(Cl)c(Cl)c2)Oc2ccc(NS(=O)(=O)c3cccs3)cc2CC1=O,22.9[16.7 µM],9.5
CC(=O)N(C)C[C@H]1Oc2cc(C#CC(C)(C)O)ccc2S(=O)(=O)N([C@H](C)CO)C[C@H]1C,-12.3[16.7 µM],-1.3
CS(=O)(=O)N1[C@H](CO)[C@@H](c2ccc(-c3ccccc3F)cc2)[C@@H]1C#N,-7.1[16.7 µM],-8.4
C[C@@H]1CCCCO[C@@H](CN(C)C(=O)c2ccccc2)[C@H](C)CN([C@@H](C)CO)C(=O)c2cc(NC(=O)Nc3ccc(C(F)(F)F)cc3)ccc2O1,56.6*[16.7 µM],-1.2
COc1ccc(NC(=O)Nc2ccc3c(c2)C(=O)N([C@H](C)CO)C[C@H](C)[C@@H](CN(C)Cc2ccccc2)OCCCC[C@H](C)O3)cc1,8.8[16.7 µM],14.9
CCCNC(=O)N(C)C[C@@H]1Oc2cc(Br)ccc2S(=O)(=O)N([C@@H](C)CO)C[C@@H]1C,13.6[16.7 µM],3.1
COc1ccc(S(=O)(=O)N(C)C[C@@H]2OCCCC[C@H](C)Oc3ccc(NC(=O)CCCN(C)C)cc3C(=O)N([C@H](C)CO)C[C@H]2C)cc1,-11.1[16.7 µM],13.4
COCC(=O)Nc1ccc2c(c1)C(=O)N(C)C[C@@H](OC)[C@H](C)CN(CCC(F)(F)F)[C@@H](C)CO2,-9.2[16.7 µM],13.3
C[C@@H]1CN([C@H](C)CO)C(=O)Cc2cc(NC(=O)Nc3ccc(C(F)(F)F)cc3)ccc2O[C@@H]1CN(C)C(=O)Nc1cccc2ccccc12,12.5[16.7 µM],-13.5
C[C@@H]1CCCCO[C@@H](CN(C)C)[C@H](C)CN([C@H](C)CO)C(=O)c2cc(NC(=O)CCCCCC(=O)Nc3ccccc3N)ccc2O1,-0.3[16.7 µM],2.3
CC(C)NC(=O)N(C)C[C@H]1Oc2ccc(NC(=O)Nc3cccc4ccccc34)cc2C(=O)N([C@@H](C)CO)C[C@@H]1C,-9.8[16.7 µM],-0.7
COc1ccc([Si](C)(C)[C@H]2[C@H](CCn3cc([C@H](O)c4ccccc4)nn3)O[C@@]3(C(=O)N(Cc4ccc(N5CCC5=O)cc4)c4ccccc43)[C@@H]2C)cc1,-1.7[16.7 µM],11.0
CCN(CC(=O)Nc1c(F)cccc1F)C(=O)Cc1ccc2c(c1)OCCO2,2.3,-17.1
CCC(=O)N(C)C[C@H]1Oc2ncc(C#Cc3ccncc3)cc2C(=O)N([C@H](C)CO)C[C@@H]1C,-36.1[16.7 µM],-17.6
C[C@H]1CN([C@@H](C)CO)C(=O)c2cc(NC(=O)Cc3cn(C)c4ccccc34)ccc2O[C@@H]1CN(C)S(=O)(=O)c1ccccc1,0.1[16.7 µM],-14.5
C[C@@H](O)C#Cc1ccc2c(c1)O[C@H](CN(C)Cc1ccccn1)[C@@H](C)CN([C@@H](C)CO)S2(=O)=O,-13.7[16.7 µM],-13.6
O=C(C[C@@H]1CC[C@@H]2[C@H](COC[C@H](O)CN2C(=O)C2CCOCC2)O1)NCc1ccncc1,-9.4[16.7 µM],-13.1
C[C@@H]1CN([C@@H](C)CO)S(=O)(=O)c2ccc(C#Cc3cccnc3)cc2O[C@H]1CN(C)C(=O)C1CC1,26.0[16.7 µM],-3.2
C[C@H](CO)N1C[C@H](C)[C@@H](CN(C)Cc2ccc(Cl)c(Cl)c2)OCCCC[C@H](C)Oc2ccc(NC(=O)c3ccncc3)cc2C1=O,10.6[16.7 µM],2.6
C[C@@H]1CN([C@@H](C)CO)C(=O)Cc2cc(NS(C)(=O)=O)ccc2O[C@H]1CN(C)S(C)(=O)=O,0.4[16.7 µM],-8.9
O=C(C[C@H]1C=C[C@@H](NC(=O)CCN2CCCCC2)[C@H](CO)O1)Nc1ccc(-c2ccccc2)cc1,12.6[16.7 µM],7.6
CCC(=O)N(C)C[C@H]1Oc2cc(C#CC3(O)CCCC3)ccc2S(=O)(=O)N([C@@H](C)CO)C[C@@H]1C,-23.7[16.7 µM],9.8
Cc1nn(C)cc1NC(=O)C[C@@H]1CC[C@@H]2[C@H](COc3ccc(NC(=O)C4CCC4)cc3C(=O)N2C)O1,3.5[16.7 µM],-4.7
CO[C@H]1CN(C)C(=O)c2cc(NC(=O)C3CCCCC3)ccc2OC[C@@H](C)N(C(=O)c2ccccc2)C[C@@H]1C,4.1[16.7 µM],19.1
O=C(Nc1ccccc1)Nc1ccc2c(c1)[C@H]1C[C@H](CC(=O)N3CCCCC3)O[C@@H](CO)[C@H]1O2,52.6[16.7 µM],12.9

# Single records (already shown). Values in the order: Env fusion inh, Yeast UUG start
# O=C(C[C@@H]1CC[C@@H]2[C@H](COC[C@H](O)CN2C(=O)C2CCOCC2)O1)NCc1ccncc1 in the list: -9.4[16.7 µM], -13.1
# C[C@@H]1CCCCO[C@@H](CN(C)C)[C@H](C)CN([C@H](C)CO)C(=O)c2cc(NC(=O)CCCCCC(=O)Nc3ccccc3N)ccc2O1 in the list: -0.3[16.7 µM], 2.3

# (next part)
SMILES,Env fusion inh,Yeast UUG start
Cc1cc(C(=O)Nc2cccc3c2O[C@H](CN(C)Cc2ccccc2)[C@@H](C)CN([C@H](C)CO)C3=O)n(C)n1,7.5[16.7 µM],5.7
C[C@H](CO)N1C[C@H](C)[C@H](CN(C)C(=O)C2CCC2)Oc2ncc(C#CC3CCCC3)cc2C1=O,5.6[16.7 µM],17.1
CCCc1cn(CC[C@H]2CC[C@@H](NS(=O)(=O)c3ccccc3Cl)[C@H](CO)O2)nn1,18.3[16.7 µM],-0.4
N[C@@H]1CC[C@@H](CCn2cc(C3CCCCC3)nn2)O[C@H]1CO,-7.9[16.7 µM],-13.5
COc1ccc(NC(=O)Nc2ccc3c(c2)CC(=O)N([C@@H](C)CO)C[C@H](C)[C@@H](CN(C)Cc2ccc(C(F)(F)F)cc2)O3)cc1,47.5[16.7 µM],16.6
COc1ccc(CN(C)C[C@H]2Oc3c(NC(=O)Nc4ccc5c(c4)OCO5)cccc3C(=O)N([C@H](C)CO)C[C@H]2C)cc1,-13.8[16.7 µM],4.7
COc1ccc(NC(=O)Nc2ccc3c(c2)C(=O)N([C@@H](C)CO)C[C@@H](C)[C@H](CN(C)C(=O)NC(C)C)OCCCC[C@H](C)O3)cc1,11.6[16.7 µM],9.2
COc1cccc(-c2cnc3c(c2)C(=O)N([C@H](C)CO)C[C@H](C)[C@@H](CN(C)Cc2ccccc2)O3)c1,-1.9[16.7 µM],2.5
COCCNC(=O)C[C@@H]1CC[C@H](NC(=O)NC2CCCC2)[C@@H](CO)O1,-28.2[16.7 µM],-5.1
C[C@H]1CN([C@@H](C)CO)C(=O)c2cccc(NS(=O)(=O)c3ccc(Cl)cc3)c2O[C@H]1CN(C)Cc1ccccc1,-28.6[16.7 µM],3.4
O=C(C[C@@H]1CC[C@H]2NC[C@@H](O)COC[C@@H]2O1)NCc1ccc(Oc2ccccc2)cc1,9.6[16.7 µM],-15.9
COc1ccc(CN(C)C[C@@H]2Oc3c(NS(=O)(=O)c4ccccc4)cccc3C(=O)N([C@H](C)CO)C[C@H]2C)cc1,-11.4[16.7 µM],1.4
COc1ccc(S(=O)(=O)N(C)C[C@@H]2Oc3ncc(-c4cc5ccccc5o4)cc3C(=O)N([C@H](C)CO)C[C@@H]2C)cc1,69.3*[16.7 µM],6.6
C[C@H]1CN([C@@H](C)CO)C(=O)c2cc(-c3ccc(C#N)cc3)cnc2O[C@@H]1CN(C)C(=O)CN(C)C,4.6[16.7 µM],-2.9
O=C(N[C@@H]1CC[C@@H](CCNC(=O)C2CCCCC2)O[C@H]1CO)c1ccccn1,4.1[16.7 µM],1.5
C[C@H](CO)N1C[C@H](C)[C@H](CN(C)C(=O)c2cccnc2)Oc2cc(/C=C/c3ccccc3)ccc2S1(=O)=O,7.0[16.7 µM],-5.0
COc1cccc(C(=O)Nc2ccc3c(c2)OC[C@H](C)N(C(C)=O)C[C@H](C)[C@H](OC)CN(C)C3=O)c1,19.9[16.7 µM],4.2
Cc1noc(C)c1NC(=O)N(C)C[C@@H]1Oc2ccc(NC(=O)Nc3ccc(C(F)(F)F)cc3)cc2C(=O)N([C@@H](C)CO)C[C@H]1C,7.1[16.7 µM],7.4
C[C@@H]1CN([C@@H](C)CO)C(=O)c2cc(NC(=O)Nc3ccc(F)cc3)ccc2O[C@@H]1CN(C)C(=O)Nc1ccc(F)cc1,16.2[16.7 µM],0.1
Cc1ccc(S(=O)(=O)N[C@H]2C=C[C@@H](CC(=O)NCc3ccc(Cl)c(Cl)c3)O[C@@H]2CO)cc1,2.2[16.7 µM],-20.2
O=C(C[C@H]1C=C[C@H](NC(=O)Nc2ccc(C(F)(F)F)cc2)[C@H](CO)O1)NCc1ccccn1,16.6[16.7 µM],27.4
O=C(Nc1ccc2c(c1)[C@@H]1C[C@H](CC(=O)N3CCOCC3)O[C@@H](CO)[C@@H]1O2)C1CCC1,-2.5[16.7 µM],-7.9
COc1ccc(S(=O)(=O)N(C)C[C@@H]2OCCCC[C@H](C)Oc3ccc(NS(=O)(=O)c4c(C)noc4C)cc3C(=O)N([C@H](C)CO)C[C@H]2C)cc1,-23.3[16.7 µM],10.9
COc1ccccc1-c1ccc2c(c1)O[C@@H](CN(C)CC1CCCC1)[C@H](C)CN([C@@H](C)CO)S2(=O)=O,-1.2[16.7 µM],5.5
COc1ccc(CN(C)C[C@@H]2OCCCC[C@@H](C)Oc3ccc(NS(=O)(=O)c4ccc(C)cc4)cc3C(=O)N([C@H](C)CO)C[C@H]2C)cc1,-20.4[16.7 µM],46.8

# By substructure: the compounds so far with a cyano group
SMILES,Env fusion inh,Yeast UUG start
CS(=O)(=O)N1[C@H](CO)[C@@H](c2ccc(-c3ccccc3F)cc2)[C@@H]1C#N,-7.1[16.7 µM],-8.4
C[C@H]1CN([C@@H](C)CO)C(=O)c2cc(-c3ccc(C#N)cc3)cnc2O[C@@H]1CN(C)C(=O)CN(C)C,4.6[16.7 µM],-2.9

# New compounds follow
SMILES,Env fusion inh,Yeast UUG start
CO[C@H]1CN(C)C(=O)c2ccc(NS(=O)(=O)c3ccc(Cl)cc3)cc2OC[C@@H](C)N(C)C[C@H]1C,1.4[16.7 µM],-12.9
C[C@H](CO)N1C[C@H](C)[C@H](CN(C)C(=O)Nc2ccc(C(F)(F)F)cc2)Oc2ccc(NC(=O)Cn3cnnn3)cc2CC1=O,-12.8[16.7 µM],4.0
Cc1noc(C)c1NC(=O)N(C)C[C@H]1Oc2ccc(NS(=O)(=O)c3ccc(F)cc3)cc2CC(=O)N([C@@H](C)CO)C[C@H]1C,-3.8[16.7 µM],-8.0
C[C@@H]1CCCCO[C@H](CN(C)S(=O)(=O)c2cn(C)cn2)[C@@H](C)CN([C@@H](C)CO)C(=O)c2cc(NC(=O)CCC(F)(F)F)ccc2O1,17.1[16.7 µM],5.6
C[C@@H]1CN([C@H](C)CO)C(=O)c2cc(/C=C/c3ccccc3)cnc2O[C@@H]1CN(C)C(=O)C1CCOCC1,0.8[16.7 µM],-7.7
CO[C@H]1CN(C)C(=O)c2ccc(NC(C)=O)cc2OC[C@H](C)N(S(C)(=O)=O)C[C@@H]1C,0.6[16.7 µM],10.4
COc1ccc(NC(=O)N(C)C[C@H]2Oc3ccc(NS(=O)(=O)c4ccc(Cl)cc4)cc3CC(=O)N([C@@H](C)CO)C[C@H]2C)cc1,-8.7[16.7 µM],4.0
C[C@@H]1CCCCO[C@@H](CN(C)C(=O)CCC(F)(F)F)[C@@H](C)CN([C@H](C)CO)C(=O)c2cc(NC(=O)Nc3ccc(F)cc3)ccc2O1,-27.6[16.7 µM],16.5
O=C(NCC[C@H]1CC[C@H](NC(=O)C2CC2)[C@H](CO)O1)c1ccc(F)cc1,-5.5[16.7 µM],-18.7
C[C@H]1CN([C@@H](C)CO)C(=O)c2cc(NC(=O)Cc3ccccc3)ccc2O[C@@H]1CN(C)Cc1ccc(-c2ccccc2)cc1,0.4[16.7 µM],-0.3
CCCC#Cc1cnc2c(c1)C(=O)N([C@H](C)CO)C[C@H](C)[C@@H](CN(C)C(=O)c1ccc3c(c1)OCO3)O2,0.0[16.7 µM],-0.8
C[C@@H]1CN([C@@H](C)CO)C(=O)c2cccc(NS(=O)(=O)c3cn(C)cn3)c2O[C@H]1CN(C)S(=O)(=O)c1cccs1,16.2[16.7 µM],-19.5
CC(C)NC(=O)N(C)C[C@@H]1Oc2c(NS(=O)(=O)c3cccs3)cccc2C(=O)N([C@H](C)CO)C[C@H]1C,-10.7[16.7 µM],-7.9
C[C@H](CO)N1C[C@H](C)[C@@H](CN(C)C(=O)c2ccccc2F)Oc2ncc(-c3cccnc3)cc2C1=O,12.8[16.7 µM],-9.1
COc1ccc(CN(C)C[C@@H]2Oc3ccc(NC(=O)C4CC4)cc3C(=O)N([C@@H](C)CO)C[C@H]2C)cc1,33.7[16.7 µM],15.2
C[C@H](O)C#Cc1cnc2c(c1)C(=O)N([C@H](C)CO)C[C@H](C)[C@H](CN(C)C(=O)c1ccncc1)O2,-9.5[16.7 µM],-16.6
C[C@@H]1CN([C@H](C)CO)C(=O)c2cc(-c3ccc(F)cc3)cnc2O[C@H]1CN(C)S(C)(=O)=O,2.4[16.7 µM],8.8
C[C@@H]1CN([C@@H](C)CO)C(=O)c2cc(-c3ccccc3)cnc2O[C@@H]1CN(C)C(=O)Nc1ccccc1F,16.0[16.7 µM],10.1
C[C@H](CO)N1C[C@H](C)[C@H](CN(C)C)Oc2cc(-c3cncnc3)ccc2S1(=O)=O,-1.7[16.7 µM],-1.7
COCC(=O)N(C)C[C@H]1Oc2ncc(C#Cc3ccccc3)cc2C(=O)N([C@@H](C)CO)C[C@H]1C,11.3[16.7 µM],-1.3

# Individual results from the results shown:
# C[C@H](CO)N1C[C@H](C)[C@@H](CN(C)C(=O)c2ccccc2F)Oc2ncc(-c3cccnc3)cc2C1=O in Yeast UUG start: -9.1
# CO[C@H]1CN(C)C(=O)c2ccc(NS(=O)(=O)c3ccc(Cl)cc3)cc2OC[C@@H](C)N(C)C[C@H]1C in Yeast UUG start: -12.9

# From PubChem BioAssay

# Only part of the results is shown. The share of hits here may be higher or lower than overall.
